# Screening results as filed in PubChem BioAssay.
# VACV Venus inh = qHTS for Stage-Specific Inhibitors of Vaccinia Orthopoxvirus: Venus Reporter Primary qHTS; 0.46% of 330,000 active; Potency, µM (doses to about 36.5 µM), for the others: at the highest dose activity change, negative = inhibition, usual class: inhibitors; Vaccinia virus Venus reporter expression, fluorescence; active means well fitted inhibition curve with a large enough effect; inconclusive means small, poorly fitted or top-dose-only effect; inactive means no such curve, though single readings can be large or run the other way; tested in A549 cells; also: nearly all actives have a fitted effect of over 30% in size; inactives centre near -10
# Vaccinia mCherry = qHTS for Stage-Specific Inhibitors of Vaccinia Orthopoxvirus: mCherry Reporter Primary qHTS | Vaccinia virus mCherry reporter infection, fluorescence; about a quarter of the inactives have no number | Potency, µM (series often up to 36.5 µM), without a hit: top-dose activity change, negative = inhibition, hits mostly inhibitors | 0.63% of 310,000 active | AID 720579, 2013; active = well fitted inhibition curve with a large enough effect; inconclusive = small, poorly fitted or top-dose-only effect; inactive = no such curve, though single readings can be large or run the other way; tested in A549 cells; also: nearly all actives have a fitted effect of over 35% in size; inactives centre near -10
# Numbers without * were called inactive; i = inactive; ? = inconclusive; . = not tested or not shown; & = joins results of further samples; [ ] = remark or other dose. % is scaled to controls: 0 for no effect and ±100 for the full control effect; potency is read from the fitted curve at half-maximal effect. The order is random. Share with any hit: about 0.87%.
no.	molecule	VACV Venus inh	Vaccinia mCherry
1	CN(CCOC(=O)c1ccc2c(c1)OCCO2)C(C)(C)C	0%	.
2	CCCc1nnc(NC(=O)CCC(=O)N2CCCCCC2)s1	8%	-10%
3	CC(NC(=O)c1nn(C)c2c1CSc1ccccc1-2)c1ccccc1 (centres undefined)	-13%	-12%
4	NC(=O)C1(Nc2ccc(Br)cc2)CCCC1	-2%	-15%
5	COC(=O)C[C@H]1CC[C@H]2NC[C@@H](O)COC[C@@H]2O1	-4%	8%
6	O=C(Cn1cc2c(n1)CCCCC2)NC1CCCCCC1	-6%	-12%
7	CN=C(Nc1cc(C)nn1-c1ccccc1)c1ccc(F)cc1	2%	-7%
8	COc1ccc(CCNC(=O)C(=O)NCC2OCCN2S(=O)(=O)c2ccc(Br)cc2)cc1OC (centres undefined)	-6%	i
9	CC[C@]12c3[nH]c4cc(CCC(=O)N(C)C)ccc4c3CCN1C(=O)[C@@H](CC(=O)NCCCN(C)C)C[C@@H]2C(=O)N1CCN(C(=O)c2ccco2)CC1	-22%	i
10	O=S(=O)(c1ccc(Cl)cc1)c1nc(-c2cccc(Br)c2)oc1NCc1ccccc1	-10%	-18%
11	COc1ccc(N2CCN(C(c3nnnn3CCc3ccccc3)C(C)C)CC2)cc1 (centres undefined)	-23%	-1%
12	CC(Oc1cccc(Cl)c1)C(=O)NCCCCc1ccccc1 (centres undefined)	-2%	i
13	CC1=C(C(=O)OCc2ccccc2)N2C(=O)[C@@H](NC(=O)OCc3ccccc3)[C@H]2SC1	-13%	i
14	CC(=O)c1cccc(NC(=S)N2CCN(S(C)(=O)=O)CC2)c1	4%	-8%
15	COc1cc(C)nc(N2CCC(C(N)=O)CC2)n1	-10%	-5%
16	CN(C)CCN(Cc1ccccc1)C(c1cc2ccccc2o1)c1nnnn1C(C)(C)C (centres undefined)	-23%	-25%
17	COc1cc(NC(=O)c2nc3ccccc3n(C)c2=O)cc(OC)c1OC	34%[activator]	5%
18	COc1cccc(C(O)c2nc(-c3ccc4ccccc4c3)cs2)c1 (centres undefined)	-4%	i
19	Cc1cc(C)c(Nc2ncnc3c2cnn3C)c(C)c1	-4%	-11%
20	Cc1cc(C(=O)CSc2nc(N)cc(=O)[nH]2)c(C)n1CCc1ccc(Cl)cc1	?	.
21	CN(C)c1ccc(C(=O)OCC(=O)Nc2ccc(S(N)(=O)=O)cc2)cc1	-25%	-21%[1.46 µM]
22	CCOC(=O)c1ccc(N2CCN(c3cc(C)ccc3C)CC2)c(NC(=O)Nc2ccc(CC)cc2)c1	-11%	-6%
23	Cc1ccc2c(c1)Oc1ccc(NC(=O)CCCl)cc1C(=O)N2	?	?
24	CCC(CC)C(=O)Nc1nnc(-c2cccs2)s1	1%	-11%
25	Cc1cccc(C)c1NC(=O)C1(C)CSCC(=O)N1CCc1ccccc1 (centres undefined)	2%	i
26	CC(=O)c1ccc(OC(C)C)c(CN2CCCCC2)c1	-4%	-27%
27	O=C(COC(=O)C1CCN(S(=O)(=O)c2cccs2)CC1)NCc1ccccc1	-9%	-14%
28	O=C(Nc1ccccc1N1CCCC1)c1cccc(Cl)c1Cl	-2%	-14%
29	Cn1c(=O)c2c(nc(N3CCOCC3)n2Cc2ccccc2)n(C)c1=O	18%	10%
30	CN1CCN(C(=O)C(Cc2ccccc2)NS(=O)(=O)c2ccc3c(c2)CCC(=O)N3)CC1 (centres undefined)	-11%	-8%
31	COc1ccc(NC(=O)c2ccc3c(c2)NC(=O)CO3)cc1OC	-6%	-18%
32	Cc1ccc(C(=O)c2cc([N+](=O)[O-])ccc2N2CCCCC2)cc1	?	?
33	COc1ccc(NC(=O)CSc2nc(-c3ccc(OC)c(OC)c3)[nH]c2-c2ccc(C)cc2)cc1	-20%	-22%
34	COc1ccc(NC(=O)CCS(=O)(=O)c2ccc3nc(C)sc3c2)cc1Cl	-18%	-21%
35	Cc1ccc(C)c(OCC(=O)Nc2cc(NC(=O)COc3cc(C)ccc3C)cc(C(=O)O)c2)c1	3%	-10%
36	Cc1ccc(C(=O)OC2OC(=O)C(Cl)=C2N2CCOCC2)cc1 (centres undefined)	-8%	i
37	COCC(=O)Nc1ccc(Br)cc1	-8%	-13%
38	CC(=O)Nc1ccc(S(=O)(=O)NCc2cccnc2)cc1	-7%	-12%
39	O=C(O)CC(c1cccc2ccccc12)N1Cc2ccccc2C1=O (centres undefined)	0%	0%
40	COc1ccc(C(C)(O)c2nc(-c3cccc(NC(C)=O)c3)cs2)cc1 (centres undefined)	-6%	12%
41	CC(=O)Nc1cccc(NC(=O)c2c(-c3c(Cl)cccc3Cl)noc2C)c1	-22%	-9%
42	Cn1cnnc1SCC(=O)N1CCc2ccccc21	-3%	-12%
43	Cc1ccc(C(=O)OCC(=O)NCc2ccc(Cl)cc2)s1	-9%	i
44	COc1ccc(/C=N/n2c(-c3n[nH]c4c3CCC4)n[nH]c2=S)cc1OC	-9%	-13%
45	COc1ccc(Cc2nc3ccccc3[nH]2)cc1OC	-12%	-7%
46	O=C(OC1CCOC1=O)c1ccc2ccccc2n1 (centres undefined)	5%	.
47	O=S(=O)(c1ccc(Cl)cc1)N1CCN(C2CCCCCC2)CC1	6%	.
48	CC12CCC(C(=O)N(CCCCN3CCN(Cc4ccccc4)CC3)C1=O)C2(C)C (centres undefined)	-7%	-15%
49	O=C(COCc1cc(-c2ccc3c(c2)OCO3)on1)NCc1ccccc1Cl	-13%	-15%
50	Cn1c(CNC(=O)CCNC(=O)c2ccc(Br)cc2)cc(=O)n(C)c1=O	-1%[7.34 µM]	-6%[7.34 µM]

# Structures shown so far that have a furan ring, fused or not (2):
no.	molecule	VACV Venus inh	Vaccinia mCherry
9	CC[C@]12c3[nH]c4cc(CCC(=O)N(C)C)ccc4c3CCN1C(=O)[C@@H](CC(=O)NCCCN(C)C)C[C@@H]2C(=O)N1CCN(C(=O)c2ccco2)CC1	-22%	i
16	CN(C)CCN(Cc1ccccc1)C(c1cc2ccccc2o1)c1nnnn1C(C)(C)C (centres undefined)	-23%	-25%

# Later entries:
no.	molecule	VACV Venus inh	Vaccinia mCherry
51	CCOc1cc(NS(=O)(=O)c2ccc(NC(C)=O)cc2)c(OCC)cc1NC(=O)c1cccs1	-27%	?
52	Cc1c(OCC(=O)N2CCC(C(N)=O)CC2)ccc2c3c(c(=O)oc12)CCC3	-2%	13%
53	COc1cc(OC)cc(-c2c(-c3cccs3)c3cc(Br)ccc3n2C)c1	-10%	-12%
54	CCS(=O)(=O)N1CCC(NC(C)=O)(c2ccccc2)CC1	0%	-7%
55	Cc1ccc(C(CNS(=O)(=O)c2cc(F)ccc2F)N2CCN(C)CC2)cc1 (centres undefined)	-10%	i
56	Cc1ccc(CNc2nc(-c3ccco3)nn2S(C)(=O)=O)cc1	-1%[7.34 µM]	-7%[7.34 µM]
57	Cc1cc(C)cc(Oc2nc3ccccn3c(=O)c2/C=C(\C#N)C(=O)NC2CCS(=O)(=O)C2)c1 (centres undefined)	-21%	-22%
58	N#C/C(=C\c1ccccc1OCc1ccc(C(=O)O)cc1)c1ccccc1	-13%	i
59	Cc1cc(C)n(CCNC(=O)C2CCC(=O)N(CCc3cccc(F)c3)C2)n1 (centres undefined)	-10%	-8%
60	COc1ccc(C(C(=O)NC2CCCCC2)N(C(=O)c2sc(C)nc2C)c2ccc(OC)cc2)cc1 (centres undefined)	-13%	-14%
61	COCCNS(=O)(=O)c1cc(-c2nn3c(C)nnc3c3ccccc23)ccc1C	-4%	19%
62	Cc1ccc(S(=O)(=O)Nc2ccc(NC(=O)Nc3ccc(F)cc3F)cc2)cc1	?	?
63	O=C(CS(=O)(=O)Cc1ccccc1)Nc1ccc(S(=O)(=O)N2CCCCCC2)cc1	-26%	-9%
64	O=C(NCc1cccnc1)C1Cc2c(-c3ccc(Cl)cc3)ccnc2O1 (centres undefined)	-21%	-7%
65	COc1ccc(OC)c(C(c2nnnn2CCC(C)C)N2CCN(C(=O)c3ccco3)CC2)c1 (centres undefined)	-5%	-19%
66	COc1cc(-c2nn3c(-c4cc(-c5ccccc5)n[nH]4)nnc3s2)cc(OC)c1OC	?	?
67	COc1cccc(Cc2nc3ccccc3nc2SCC(=O)N2CCCc3ccccc32)c1	-3%	-18%
68	CCN(CC)CCOc1ccc2c(c1)C(=O)c1cc(OCCN(CC)CC)ccc1-2	-20%	-23%
69	O=S(=O)(NCCN1CCOCC1)c1ccc2c(c1)OCCO2	-20%	-4%
70	COC(C/C=C\[C@@H](O)[C@H](C)OCc1ccccc1)OC	-5%	-2%

# Ordered by molecular weight (falling): 23 of the compounds above
no.	molecule	VACV Venus inh	Vaccinia mCherry
9	CC[C@]12c3[nH]c4cc(CCC(=O)N(C)C)ccc4c3CCN1C(=O)[C@@H](CC(=O)NCCCN(C)C)C[C@@H]2C(=O)N1CCN(C(=O)c2ccco2)CC1	-22%	i
10	O=S(=O)(c1ccc(Cl)cc1)c1nc(-c2cccc(Br)c2)oc1NCc1ccccc1	-10%	-18%
33	COc1ccc(NC(=O)CSc2nc(-c3ccc(OC)c(OC)c3)[nH]c2-c2ccc(C)cc2)cc1	-20%	-22%
57	Cc1cc(C)cc(Oc2nc3ccccn3c(=O)c2/C=C(\C#N)C(=O)NC2CCS(=O)(=O)C2)c1 (centres undefined)	-21%	-22%
30	CN1CCN(C(=O)C(Cc2ccccc2)NS(=O)(=O)c2ccc3c(c2)CCC(=O)N3)CC1 (centres undefined)	-11%	-8%
67	COc1cccc(Cc2nc3ccccc3nc2SCC(=O)N2CCCc3ccccc32)c1	-3%	-18%
63	O=C(CS(=O)(=O)Cc1ccccc1)Nc1ccc(S(=O)(=O)N2CCCCCC2)cc1	-26%	-9%
13	CC1=C(C(=O)OCc2ccccc2)N2C(=O)[C@@H](NC(=O)OCc3ccccc3)[C@H]2SC1	-13%	i
66	COc1cc(-c2nn3c(-c4cc(-c5ccccc5)n[nH]4)nnc3s2)cc(OC)c1OC	?	?
53	COc1cc(OC)cc(-c2c(-c3cccs3)c3cc(Br)ccc3n2C)c1	-10%	-12%
27	O=C(COC(=O)C1CCN(S(=O)(=O)c2cccs2)CC1)NCc1ccccc1	-9%	-14%
62	Cc1ccc(S(=O)(=O)Nc2ccc(NC(=O)Nc3ccc(F)cc3F)cc2)cc1	?	?
52	Cc1c(OCC(=O)N2CCC(C(N)=O)CC2)ccc2c3c(c(=O)oc12)CCC3	-2%	13%
3	CC(NC(=O)c1nn(C)c2c1CSc1ccccc1-2)c1ccccc1 (centres undefined)	-13%	-12%
39	O=C(O)CC(c1cccc2ccccc12)N1Cc2ccccc2C1=O (centres undefined)	0%	0%
31	COc1ccc(NC(=O)c2ccc3c(c2)NC(=O)CO3)cc1OC	-6%	-18%
24	CCC(CC)C(=O)Nc1nnc(-c2cccs2)s1	1%	-11%
26	CC(=O)c1ccc(OC(C)C)c(CN2CCCCC2)c1	-4%	-27%
42	Cn1cnnc1SCC(=O)N1CCc2ccccc21	-3%	-12%
19	Cc1cc(C)c(Nc2ncnc3c2cnn3C)c(C)c1	-4%	-11%
5	COC(=O)C[C@H]1CC[C@H]2NC[C@@H](O)COC[C@@H]2O1	-4%	8%
46	O=C(OC1CCOC1=O)c1ccc2ccccc2n1 (centres undefined)	5%	.
15	COc1cc(C)nc(N2CCC(C(N)=O)CC2)n1	-10%	-5%

# (next part)
no.	molecule	VACV Venus inh	Vaccinia mCherry
71	CC1C(=O)N2CCCc3cc(S(=O)(=O)N4CCC(C(N)=O)CC4)cc1c32 (centres undefined)	-22%&-12%	-14%
72	CNC(=O)C1Cc2c(-c3ccc(Cl)cc3)ccnc2O1 (centres undefined)	3%	-11%
73	O=C(NCNC(=O)c1ccccc1)c1ccccc1	-20%	i
74	COc1ccc(/C=C/C(=O)N(c2ccccn2)C2CCCCC2)cc1OC	3%	-8%
75	COc1ccc(NC(=O)c2ccc(-c3nc(CSc4ccccc4)c(C)o3)cc2)c(OC)c1	-12%	-11%
76	CCCC1Nc2ccc(C(=O)O)cc2C2C=CCC12 (centres undefined)	12%	4%
77	COc1cccc(-c2nc(CS(=O)(=O)CC(=O)N3CCc4ccccc43)c(C)o2)c1	-13%	-26%
78	COc1ccc(CCN(CC(=O)NCc2ccc(F)cc2)C(=O)c2snc(C(N)=O)c2N)cc1OC	15%	-8%
79	O=C(O)COc1ccc2c(-c3ccccc3)cc(=O)oc2c1	9%	9%
80	CC(C)[C@@H]1Cc2[nH]n(C)c(=O)c2[C@H](c2ccc(Cl)cc2)O1	-4%	i
81	Cc1cc(N2C(=O)C3C4c5ccccc5C(c5ccccc54)C3C2=O)no1 (centres undefined)	-16%	-15%
82	COc1cc2nc(CN3CCC(C(O)(c4ccccc4)c4ccccc4)CC3)[nH]c(=O)c2cc1OC	-14%	-10%
83	COc1ccc(C2CC(=O)C3=C(C2)Nc2ccccc2N(C(=O)CCC(=O)O)C3c2ccc(F)cc2)cc1OC (centres undefined)	-5%	7%
84	O=S1(=O)CCOC[C@H](Cc2ccccc2)N1Cc1cccc(F)c1	-15%	-5%
85	Cc1ccccc1OCC(=O)NNC(=O)CSc1nc(N)cc(N)n1	3%	10%
86	COc1ccccc1-c1cncnc1-n1ccnc1	-1%	-9%
87	O=C(c1cc(F)cc2c1OCOC2)N1CCN(c2ccc(F)cc2)CC1	-12%	-3%
88	Cc1ccc(OCC(=O)OCc2c(C)noc2C)cc1C	-10%	-8%
89	COc1ccc2oc(C(=O)C3CC3)c(N)c2c1	-19%	.
